AID504770: E. coli YBA685 growth inhibition, screen for V. cholerae RctB inhibitors; AID 504770; E. coli YBA685 rctB-dependent plasmid, OD600 growth, 3 h; active compounds read low; 0.27% of 130,000 active; z-score (test concentration not listed);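 active = z-score under -2 on both plates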;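 note: wells of about 30 µL received 100 nL stock; score is relative to mean and SD of the test wells; the first replicate is given; strong numbers were not always called active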
Ba CapD inh: inhibitors of Bacillus anthracis CapD enzyme | purified CapD enzyme, fluorescence intensity read-out; active compounds read low; some hits fall short of the stated cut | z-score (concentration not given with the values) | 0.23% of 140,000 active;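 active = z-score under -4 in either of two replicates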;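 note: stock transfer was 100 nL into about 40 µL; score is relative to mean and spread of the plate; one replicate is shown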
* hit, by the source's call; x = no result given. A portion of the library. The share of hits here may be higher or lower than overall.

Below each SMILES: AID504770	Ba CapD inh
- NNC(=S)NCc1ccc(F)cc1
→ -0.55	0.735
- Cc1ccc2c(c1)c1c(n2CCC#N)C(=O)CCC1
→ 1.4	24.3
- COc1cccc(/C=C(\C)[N+](=O)[O-])c1
→ x	-0.47
- CCc1c(C)c(C#N)c2nc3ccccc3n2c1NCCN(C)C
→ -1.05	0.595
- Nc1cccnc1Oc1ccccc1F
→ x	-0.05
- O=C1C2C(c3ccccc3)OC3(C(=O)c4ccccc4C3=O)C2C(=O)N1c1ccc(F)c([N+](=O)[O-])c1 (stereo not drawn)
→ x	0.295
- O=C(CCS(=O)(=O)c1ccccc1)N(Cc1ccccn1)c1nc2ccccc2s1
→ 1.35	x
- CN(C)Cc1ccc(CSCCNC(=O)Nc2ccccc2)o1
→ 0.55	0.155
- COc1ccc(CC(=O)Nc2cc(C)on2)cc1OC
→ 0.15	0.79
- C/C(=N\NC1=NCCN1)c1ccc(Br)cc1
→ x	-1.21
- Clc1ccc(Cn2c(-c3cccnc3Cl)nc3ccccc32)c(Cl)c1
→ x	-0.155
- CCCNC(=O)c1cnc(N2CCCC2)nc1
→ 1.45	3.82
- COC(=O)c1nnn(-c2nonc2N)c1CN1CCOCC1
→ x	-0.17
- O=C(O)/C=C/c1ccc(Br)s1
→ -0.45	x
- O=C1NC(=S)NC(=O)C1=Cc1ccccc1
→ -1.45	-0.35
- O=C(NCCCn1ccnc1)c1cccnc1
→ -0.3	-0.145
- CCOc1cc(N2CCOCC2)c(OCC)cc1NC(=O)Cn1nnc(-c2ccccc2C)n1
→ 0.05	x
- O=C(c1ccco1)N1CCN(c2ccc(C(F)(F)F)cn2)CC1
→ 1.75	2.29
- COc1ccc(C2=NN(C(=O)c3ccc(Br)o3)C(c3cccc(OC)c3OC)C2)cc1OC (stereo not drawn)
→ x	1.64
- O=C(O)C1CC=CCC1C(=O)Nc1ccc(Cc2ccncc2)cc1 (stereo not drawn)
→ 1.55	-0.31
- O=S1(=O)c2ccccc2S(=O)(=O)N1c1cccc(Cl)c1
→ x	-0.185
- CCc1ccc(C2=NN(c3ccccc3)C3(SC(C(C)=O)=NN3c3ccccc3)c3ccccc32)cc1 (stereo not drawn)
→ x	0.125
- O=C(CSc1cnccc1C(F)(F)F)NC1CCSC1=O (stereo not drawn)
→ x	-0.315
- COc1ccc(C(=O)N2CCC(C(=O)c3c(C)cc(C)cc3C)CC2)cc1
→ 0	-0.62
- CC1(C)CC(=O)C2=C(C1)c1c(ccc3ccccc13)NC2c1cc([N+](=O)[O-])c(Cl)cc1Cl (stereo not drawn)
→ x	-0.23
- CCn1c(=O)cc(SCC(=O)NCC2(c3ccccc3)CCCC2)c2ccccc21
→ 0.2	-0.25
- Cc1ccccc1NS(=O)(=O)N1CCCCC1
→ 0.25	0.685
- CC(C)(C)C(=O)[C@H]1[C@H](c2ccc(Cl)c(Cl)c2)C(C#N)(C#N)[C@@H]2c3ccccc3C=CN21
→ x	5.99
- NC(N)=NC(N)=Nc1ccc(F)cc1
→ x	0.42
- CC(C)(C)c1ccc(C(=O)NCCC(=O)N2CCN(c3ncccn3)CC2)cc1
→ -0.05	x

Continued.
Below each SMILES: AID504770	Ba CapD inh
- CCc1ccccc1N1CCN(C(=O)c2ccccc2CC(=O)O)CC1
→ x	0.475
- Cc1cc(=O)oc2c3c(ccc12)O/C(=C\c1ccc(Cl)cc1)C3=O
→ -0.1	1.21
- CC(C)(C)C1=CC(=Nc2ccccc2N)C=C(C(C)(C)C)C1O (stereo not drawn)
→ -0.65	0
- C=CCC(O)(CC=C)C(C)N (stereo not drawn)
→ -0.05	x
- CCOc1ccc(-n2cc(-c3ccccc3)c3c(NCc4ccc5c(c4)OCO5)ncnc32)cc1
→ x	0.175
- CCC(C)(C#CCN1CCN(C)CC1)OC1CCCCO1 (stereo not drawn)
→ 1.75	-0.295
- COCCCN1C(=O)c2ccc(C(=O)OCC(=O)Nc3ccc(N(C)C)cc3)cc2C1=O
→ -0.1	x
- COc1ccc(CSc2nc3ccccc3s2)cc1OC
→ -0.45	1.47
- CCCCn1c2nc3ccccc3nc2c2cccc(C)c21
→ 0.15	x
- Clc1cccc(Nc2nnns2)c1Cl
→ -1	-0.895
- COC(=O)COc1ccc(NC(=O)c2ccco2)cc1
→ 0.65	-0.265
- CCOc1ccc(NC(=S)N2CCC(c3ccccc3OC)CC2)cc1
→ x	-0.375
- O=C(c1noc2c1CCCCC2)N1CCCCC1
→ 1.3	-0.405
- COc1ccc(N2CCN(C(=O)OCc3c(C)noc3-c3cc(C)on3)CC2C)cc1 (stereo not drawn)
→ x	0.265
- CCn1c2ccccc2c2cc(NC(=O)/C=C/C(=O)O)ccc21
→ -0.1	17.1
- O=C1c2ccccc2CCC1Sc1nnc(-c2ccncc2)o1 (stereo not drawn)
→ -1.05	x
- O=C(Nc1ccc(N2CCOCC2)c(Cl)c1)c1cccc(Cl)c1
→ -0.85	-0.5
- Oc1c(CN2CCOCC2)ccc2cccnc12
→ -0.05	-0.435
- Cc1cc(N2CCN(c3ccccn3)CC2)n2ncnc2n1
→ -0.55	-0.31
- CC(C)(C)NS(=O)(=O)c1ccc(Br)cc1
→ -0.6	-0.24
- CC(C)NC(=O)C1(c2ccccc2)CCOCC1
→ -0.35	-0.49
- O=C(Nc1ccc2c(c1)OCO2)C1=NN(C2CCS(=O)(=O)C2)C(=O)CC1 (stereo not drawn)
→ 1.85	x
- C=CCOc1cc(C)nc(N2CCOCC2)n1
→ -0.4	0.9
- O=C(CC1Nc2cccc3cccc(c23)NC1=O)Nc1ccccc1 (stereo not drawn)
→ -0.9	4.54
- Cn1ncc(Br)c1NC(=O)CSc1ccc(Cl)cc1
→ 1.3	-0.775
- COc1ccc(NC(=O)c2cnn3c2NC(c2cccc(OC)c2)CC3C(F)(F)F)cc1 (stereo not drawn)
→ 0.65	2.89
- O=C(Cn1nnc2ccccc21)NCCSCc1ccco1
→ -0.7	-0.56
- c1ccc(NNC2=NCCCCC2)nc1
→ -0.15	x
- CCOc1cccc2cc(C(=O)Nc3cc(OC)ccc3OC)c(=Nc3ccc(C(=O)O)cc3)oc12
→ x	-0.79
- COc1ccccc1N1CCN(C(=O)c2cc(C(C)(C)C)oc2C)CC1
→ -0.6	-0.21

Taken from above.
Value of `O=C(c1noc2c1CCCCC2)N1CCCCC1` in AID504770: 1.3
Value of `CCOc1cccc2cc(C(=O)Nc3cc(OC)ccc3OC)c(=Nc3ccc(C(=O)O)cc3)oc12` in Ba CapD inh: -0.79
Value of `CCc1ccccc1N1CCN(C(=O)c2ccccc2CC(=O)O)CC1` in Ba CapD inh: 0.475

Exported with bars between the fields: entries from further up.
Structure | AID504770 | Ba CapD inh
O=C(Nc1ccc2c(c1)OCO2)C1=NN(C2CCS(=O)(=O)C2)C(=O)CC1 (stereo not drawn) | 1.85 | x
C=CCOc1cc(C)nc(N2CCOCC2)n1 | -0.4 | 0.9

Further records:
Below each SMILES: AID504770	Ba CapD inh
- COc1cc(OC)nc(-c2ccc(C(C)(C)C)cc2)n1
→ x	-0.315
- COc1cc(C2C3=C(CC(C)(C)CC3=O)OC3=C2C(=O)CC(C)(C)C3)ccc1OCC(=O)OC(C)C
→ x	-0.15
- COCCOC(=O)C1=C(C)NC2=C(C(=O)CC(c3cccs3)C2)C1c1coc2ccccc2c1=O (stereo not drawn)
→ x	-0.26
- COc1cc(S(=O)(=O)N2CCCC2)c(OC)cc1C
→ -0.7	-0.2
- CC1(C)CC(=O)C=C(NCCCN2CCOCC2)C1
→ 0.05	-0.535
- COc1ccc(CCN=C2SCCN2C(=O)c2ccc(NC(N)=O)cc2)cc1
→ 0.8	x
- CC(=O)Nc1cc(-n2c(C)nc3ccccc3c2=O)ccc1Cl
→ 0.9	x
- Cc1cc2c(cc1S(=O)(=O)NC(C)(C)C)OCC(=O)N2
→ 1	0.345
- CCC(C)NC(=O)C1(O)c2ccccc2NC(=O)N1c1ccccc1 (stereo not drawn)
→ -0.35	0.86
- O=C(NCCO)c1cccc(C(=O)NCCO)c1
→ 1.45	-0.145
- CN(C)CCNc1nc2c(c(=O)[nH]c(=O)n2C)n1CC(O)COc1ccc(Cl)cc1Cl (stereo not drawn)
→ x	0.085
- O=C(CSc1nnc(-c2cccs2)o1)c1ccc(Br)cc1
→ 0.1	1.42
- C=CCn1nnnc1SCC(=O)Nc1ccccc1C(=O)OC
→ 0.15	0.38
- Cc1sc2c(c1C)CSC(C(=O)Oc1cccnc1)=C2
→ 1	-0.89
- CC(C)(C)c1ccc(Oc2ccc(NC(=O)CCCC(=O)O)cc2)cc1
→ 2.1	0.98
- Cc1ccc(S(=O)(=O)N(CC(=O)N2CCC(C)CC2)CC(=O)N2CCC(C)CC2)cc1
→ -1.1	0
- COc1ccc(CNCC2(c3ccccc3)CCCC2)cc1
→ 1.05	-0.29
- CNC(=S)NNC(=O)c1ccc(=O)n(Cc2ccc(Cl)cc2Cl)c1
→ x	0.22
- c1ccc(NC2=NC3(CCCCC3)Cc3ccccc32)cc1
→ x	-0.315
- CC(C)NC(=O)C1c2ccccc2Oc2ccccc21
→ 0.75	0.055
- C1CCN2C[C@H]3C[C@@H](CN4CCCC[C@@H]34)[C@H]2C1
→ x	-0.435
- Nc1ccccc1SCc1nc(-c2ccc(Cl)cc2)no1
→ -0.25	-1.34
- CN(C)C(=S)c1ccccc1
→ x	-0.165
- CCOC(=O)C1(Cc2ccc(O)cc2)NC(c2ccccc2F)C2C(=O)N(C)C(=O)C21 (stereo not drawn)
→ 0.15	x
- CCCCN(C)C(=O)c1cc2c(Cl)nc3ccccc3c2s1
→ -0.1	58.5
- Cc1ccc2c(CC(=O)N3CCN(c4ncccn4)CC3)coc2c1
→ 0.8	x
- O=C(c1ccc(F)cc1)N1CCCCC(N2CCN(S(=O)(=O)c3ccccc3)CC2)C1=O (stereo not drawn)
→ -0.85	x
- Cc1nc(COc2cccc(C(=O)O)c2)cs1
→ 0.3	x
- Cc1cc(=O)[nH]c(NN)n1
→ 2.3	x
- CC12CC[C@H]3[C@@H](CCC4(O)C[C@H](O)CCC34/C=N/NC(=O)c3ccc(Br)cc3)C1(O)CCC2C1=CC(=O)OC1 (stereo partly drawn)
→ x	-0.66

Additional structures.
Below each SMILES: AID504770	Ba CapD inh
- CCCNS(=O)(=O)c1cc2c3c(c1)c(C)cc(=O)n3CC2
→ -0.75	x
- CCOc1nc(NCCC2=CCCCC2)nc(N2CCOCC2)n1
→ x	0.19
- Cc1cc(=O)cc(C)n1NC(=O)c1cccnc1
→ x	-0.64
- CC(=O)C1=NN(c2ccc(Cl)cc2)C(c2ccc3c(c2)OCO3)N1c1ccc(N2CCOCC2)cc1 (stereo not drawn)
→ x	4.21
- O=C(O)C1C2C=CC(C2)C1C(=O)OCC1CCCO1 (stereo not drawn)
→ -0.5	-2
- Cc1ccccc1CSC(SCc1ccccc1C)=C(C#N)C(=O)NCc1ccco1
→ -0.9	-0.35
- N#C/C(=C\c1cccc(O)c1)C(=O)O
→ x	-1.06
- CCc1ccc(/C=C2\C(=O)NC(C)=C2C(=O)OC)cc1
→ -0.45	-1.75
- OC(CNCCNc1ncccc1C(F)(F)F)COc1ccc(Cl)c(Cl)c1 (stereo not drawn)
→ x	0.05
- CN(C)c1nc(N)nc(CSc2nnnn2-c2ccc3c(c2)OCO3)n1
→ -0.8	0.27
- Brc1ccc(-n2nnnc2/C=C/N2CCCCC2)cc1
→ -0.3	-0.135
- CC(Nc1ccccc1CO)C(=O)Nc1cccc(Cl)c1 (stereo not drawn)
→ -0.3	x
- Cn1c(SCC(=O)Nc2ccccc2)nnc1-c1csc(Cc2ccsc2)n1
→ 0.65	0.725
- CCOC(=O)c1c(N)sc2c1CC(C)(C)NC2(C)C
→ -0.3	0.01
- O=C(O)c1cccnc1SCc1ccc([N+](=O)[O-])cc1
→ x	1.36
- C/C(=N\c1ccccn1)C1=C(O)c2ccccc2C1=O
→ -0.75	-0.78
- Nc1nc(-c2ccccc2)cn1/N=C/c1ccccc1
→ 1.75	x
- CCCC(=O)Nc1nnc(Cc2ccc(Cl)cc2)s1
→ 0	0.04
- O=C1/C(=N\OCc2ccc(Cl)cc2)c2ccccc2N1c1ccccc1
→ x	0.055
- Cc1ccc(NC(=O)C(F)(F)F)c(C(=O)O)c1
→ -1.7	9.8
- CC1(C)CC(=O)C2=C(C1)NCN(Cc1ccc3c(c1)OCO3)C2
→ 0.25	0.445
- Cc1cc(=O)oc2cc3occ(C(C)(C)C)c3cc12
→ 0.65	0.935
- COCC(C)N=C=S (stereo not drawn)
→ -0.2	x
- Cc1cc(C(=O)NCC2CCCO2)c2c(C)nn(-c3ccccc3Cl)c2n1 (stereo not drawn)
→ 1.35	2.09
- CN(C)c1cc(C(=O)N2CCN(S(=O)(=O)c3cccc(C(F)(F)F)c3)CC2)nc(N(C)C)n1
→ x	3.13
- Cc1c(Cl)cccc1NC(=O)c1ccc(N2C(=O)c3ccccc3C2=O)cc1
→ 0.55	1
- Cc1cccc(-c2cc(=O)c3cc(C)ccc3o2)c1
→ -0.65	3.31
- O=C(O)c1cc(I)ccc1NC(=O)C(F)(F)F
→ x	0.75
- COc1ccccc1Oc1ccc(N/C=C/C(=O)c2ccco2)cc1
→ -0.55	0.41
- CN(C)S(=O)(=O)c1ccc2c(c1)c(=O)c(C(=O)NCc1ccccc1)cn2C
→ -0.45	-0.155

Compounds from the list above with an NH in an aromatic ring (2):
Below each SMILES: AID504770	Ba CapD inh
- CN(C)CCNc1nc2c(c(=O)[nH]c(=O)n2C)n1CC(O)COc1ccc(Cl)cc1Cl (stereo not drawn)
→ x	0.085
- Cc1cc(=O)[nH]c(NN)n1
→ 2.3	x

(list continues)
Below each SMILES: AID504770	Ba CapD inh
- Cc1ccc(S(=O)(=O)N2CCCC2C(=O)OCc2nc3ccsc3c(=O)[nH]2)cc1 (stereo not drawn)
→ -0.1	x
- O=C(CCOc1ccccc1)Nc1ccccc1N1CCCC1
→ -0.6	x
- O=C(CC12CC3CC(CC(Br)(C3)C1)C2)OCC(=O)N1CCCC1
→ -1.5	-0.47
- COc1ccc(-c2cn3c4c(=O)n(C)c(=O)n(C)c4nc3n2-c2cccc3c2OCCO3)cc1
→ x	-0.465
- CC(N)=Nc1cc(-c2ccccc2)[nH]n1
→ -0.85	0.075

Assay outcomes: PubChem BioAssay, ICCB-Longwood Screening Facility, Harvard Medical School
